LASV entry inh – qHTS for Inhibitors of binding or entry into cells for Lassa Virus. AID 540256, 2011. 300,000 compounds, 1.2% hits. Lassa virus pseudotype entry inhibition, cell reporter; control for the full effect not named in the record. Potency, µM (doses to about 37.9 µM), inactives show top-dose activity change, negative = inhibition, hits mostly inhibitors; active means well fitted inhibition curve with a large enough effect; inconclusive means small, poorly fitted or top-dose-only effect, or effect the other way; inactive means flat fitted curve, though single readings scatter; tested in HEK293 cells; also: % is scaled to controls: 0 for no effect and ±100 for the full control effect; nearly all actives have a fitted effect of over 50% in size; luciferase read-out
Marburg entry inh – qHTS for inhibitors of binding or entry into cells for Marburg Virus | Marburg virus pseudotyped entry inhibition, cell reporter; control for the full effect not named in the record; about a third of the inactives were read at about 46 µM | 300,000 compounds, 1.8% hits | Potency, µM (top dose mostly 37.8 µM), for the others: at the highest dose activity change, negative = inhibition, hits mostly inhibitors | AID 540276, 2011; active = well fitted inhibition curve with a large enough effect; inconclusive = small, poorly fitted or top-dose-only effect, or effect the other way; inactive = flat fitted curve, though single readings scatter; tested in HEK293 cells; about a fifth of its hits are not listed in these tables; also: % is scaled to controls: 0 for no effect and ±100 for the full control effect; luciferase read-out
RE007 growth inh – qHTS Assay for Inhibitors of the HIV-1 protein Vpr. S. pombe RE007 Vpr strain, BacTiter-Glo ATP luminescence, 24 h; control for the full effect not named in the record. Potency, µM (series often up to 92.2 µM), without a hit: top-dose activity change, negative = less growth. 360,000 compounds, 0.21% hits. AID 651644, 2012; active = well fitted falling curve with a large enough effect; inconclusive = small, poorly fitted or top-dose-only effect; inactive = no such curve, though single readings can be large or run the other way;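 also: % is scaled to controls: 0 for no effect and ±100 for the full control effect; nearly all actives have a fitted effect of over 50% in size; the assay follows cell death caused by Vpr and the record does not say whether a fall means rescue or toxicity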
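Fission yeast RE007 carrying one integrated HIV-1 vpr copy, seeded at OD 0.01 in PMG+AL medium with 23 nL pinned compound. Grown 24 h at 30 degrees; viability read by BacTiter-Glo luminescence after 5 min.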
Cruzain Triton – qHTS Assay for Promiscuous and Specific Inhibitors of Cruzain (with detergent); purified cruzain, Z-FR-AMC fluorescence, 0.01% Triton; 200,000 compounds, 0.43% hits; Cruzipain (Trypanosoma cruzi), P25779; Potency, µM, inactives show max response, negative = inhibition, actives largely listed as inhibitors;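 also: plate controls were neutral wells for no effect and buffer without enzyme for full effect; nearly all actives have a fitted effect of over 40% in size; top concentration of the series not given in the record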
Target sequence (P25779 123-467 limits assumed): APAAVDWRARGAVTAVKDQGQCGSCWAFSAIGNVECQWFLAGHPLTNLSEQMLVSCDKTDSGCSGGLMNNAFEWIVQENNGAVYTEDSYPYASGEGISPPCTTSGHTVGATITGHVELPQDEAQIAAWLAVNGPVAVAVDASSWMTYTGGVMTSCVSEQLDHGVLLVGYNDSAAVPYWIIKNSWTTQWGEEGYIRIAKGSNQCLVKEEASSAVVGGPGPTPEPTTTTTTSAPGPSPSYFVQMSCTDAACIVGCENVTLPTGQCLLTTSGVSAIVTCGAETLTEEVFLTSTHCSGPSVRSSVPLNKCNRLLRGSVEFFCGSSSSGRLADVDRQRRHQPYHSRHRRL
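Sodium acetate buffer (100 mM, pH 5.5) containing 5 mM DTT and 0.01% Triton X-100 hosted 1.5 nM cruzain and test compound for 15 min at room temperature. Cleavage of 2 uM Z-FR-AMC was then tracked by fluorescence.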
SARS PLpro yeast – qHTS of Yeast-based Assay for SARS-CoV PLP. Potency, µM (titrated, usually from 32.9 µM), without a hit: top-dose activity, positive = growth rescue. S. cerevisiae expressing SARS-CoV PLpro, growth rescue; control for the full effect not named in the record. 330,000 compounds, 0.19% hits. AID 485353, 2010; active means well fitted rising curve with a large enough effect; inconclusive means small, poorly fitted or top-dose-only effect; inactive means no such curve, though single readings can be large or run the other way; also: 0% is about no effect; nearly all actives have a fitted effect of over 55% in size; growth read by luminescence after 48 h
NS1 inh – qHTS Assay for Inhibitors of Influenza NS1 Protein Function; S. cerevisiae slowed by influenza A NS1, growth recovery by OD600; Potency, µM (series often up to 46.1 µM), for inactives: at the highest dose activity, positive = more growth; 270,000 compounds, 0.4% hits; AID 2326, 2010; active means well fitted rising curve with a large enough effect; inconclusive means small, poorly fitted or top-dose-only effect; inactive means no such curve, though single readings can be large or run the other way; also: nearly all actives have a fitted effect of over 50% in size
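Growth recovery, yeast-based: influenza A NS1 expressed in S. cerevisiae causes slow growth, and suppressors are detected by OD600. The parent strain without NS1 is used as positive control.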
2A StopGo – High Throughput Screening for Foot and Mouth Disease Virus Antivirals. 410,000 compounds, 1.2% hits. Potency, µM (doses to about 57.9 µM), without a hit: top-dose signal change, negative = less light. human cells with a luciferase reporter of 2A StopGo recoding; control for the full effect not named in the record. AID 1159524, 2015; active = well fitted falling curve with a large enough effect; inconclusive = small, poorly fitted or top-dose-only effect; inactive = no such curve, though single readings can be large or run the other way; tested in HEK293T cells; also: % is scaled to controls: 0 for no effect and ±100 for the full control effect; nearly all actives have a fitted effect of over 45% in size; luciferase light after 4 h
Cruzain noTriton – qHTS Assay for Promiscuous and Specific Inhibitors of Cruzain (without detergent). purified cruzain, Z-FR-AMC fluorescence, no detergent. 200,000 compounds, 2.3% hits. Potency, µM, inactives show max response, negative = inhibition, usual class: inhibitors;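 also: plate controls were enzyme without inhibitor for no effect and buffer without enzyme for full effect; nearly all actives have a fitted effect of over 40% in size; top concentration of the series not given in the record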
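Purified cruzain at 1.5 nM, pre-incubated 15 min with compound at room temperature in 100 mM sodium acetate pH 5.5, 5 mM DTT, 0.00005% Triton X-100. Reaction started with 2 uM Z-FR-AMC; AMC fluorescence increase over 60 s gives rate.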
Active calls of the source: *; u = inconclusive; x = not tested or not shown; & = joins results of further samples; [ ] = dose if it differs, or a comment. Unless noted, calls follow the shape of the dose curve; as a rule, active = well fitted curve in the direction sought with a large enough effect; inconclusive = small, poorly fitted or top-dose-only effect, or another doubt; inactive = no such curve, though single readings can be large; an effect the other way counts as inactive or inconclusive. Potency is read from the fitted curve at half-maximal effect.

Under each structure: 2A StopGo	Cruzain Triton	Cruzain noTriton	RE007 growth inh	LASV entry inh	Marburg entry inh	NS1 inh	SARS PLpro yeast
> COc1ccc(NC(=O)CSc2nc(-c3ccco3)cc(C(F)(F)F)n2)c(OC)c1
    -20%	0.7%	-1%	x	-5%[46.1 µM]	1%[46.1 µM]	x	x
> NC(=O)CC(NC(=O)Cc1cccc2ccccc12)c1ccc(N2CCc3ccccc3C2)c([N+](=O)[O-])c1 (centres undefined)
    -36%	x	x	-5%	x	x	16%	0%
> Cc1ccccc1NC(=S)NCCO
    -2%	x	x	17%	4%	15%[46.1 µM]	3%	0%
> COc1ccc(OC)c(NC(=O)Nc2c(C)n(C)n(-c3ccccc3)c2=O)c1
    3%	0.3%	-4%	x	7%[46.1 µM]	-6%[46.1 µM]	x	x
> Cc1ccc(SCC(=O)Nc2ccc3c(c2)C(=O)N(C)C3=O)cc1
    2%	x	x	12%	x	x	2.5µM*	-5%
> CC(OC(=O)/C=C/c1ccco1)C(=O)Nc1cccc([N+](=O)[O-])c1 (centres undefined)
    u	-15%	2%	1%	-16%	u	-6%	15%
> Cc1ccc(S(=O)(=O)NCCC(=O)Nc2nnc(C3CC3)s2)cc1C
    -5%	-4.6%	-9%	10%	-10%	10%[46.1 µM]	6%	-3%
> CCSc1nnc2ccc(-c3ccc(OC)c(OC)c3)nn12
    3%	x	x	-1%	-24%	-23%[46.1 µM]	-8%	10%
> CCOC(=O)C1(Cc2ccccc2C)CCCN(C(=O)c2ccc(COC)o2)C1 (centres undefined)
    16%	x	x	2%	-20%	-28%	-8%	9%
> COc1ccc2c(CC(=O)OCC(=O)Nc3sc4c(c3C#N)CCC(C)C4)coc2c1 (centres undefined)
    7%	-4.7%	-25%	x	13%	8%	14%	6%
> Cc1cc(C(=O)OCC(=O)c2ccc3c(c2)OCCO3)c(C)o1
    26%	-2.8%	-1%	-10%	-3%	25%	-54%	-23%
> CCCNC(=O)COC(=O)c1ccc(Cl)c(S(=O)(=O)N2CCCC2)c1
    0%	-0.7%	-4%	-10%	0%	-1%	3%	-1%
> COc1ccc(NC(=O)c2ccc(S(=O)(=O)N(C)C)cc2)cc1OC
    0%	2.0%	-9%	10%	0%	u	2%	1%
> Cc1ccc(C(=O)Nc2ccccc2OC(F)F)cc1
    55%[activator]	-5.6%	-4%	-21%	2%	28%	-17%	-9%
> Cc1ccc(C)n1-c1cccc(C(=O)Nc2ccccc2)c1
    -4%	x	x	-13%	x	x	10%	0%
> COc1ccc(Cl)cc1NC(=O)C1CC(c2c(F)cccc2Cl)=NO1 (centres undefined)
    5%	x	x	-1%	x	x	10%	-9%
> O=C(CN1CCCCC1)N/N=C/c1cccc(C(F)(F)F)c1
    -6%	x	x	-2%	-13%	u	x	x
> CC1CCCCC1NC(=O)CN1CCC(NC(=O)c2ccc([N+](=O)[O-])cc2)CC1 (centres undefined)
    u	x	x	0%	x	u	11%	1%
> COc1cccc(CC2(CO)CCCN(Cc3nc(-c4cccs4)oc3C)C2)c1 (centres undefined)
    -14%	x	x	-2%	x	x	-2%	7%
> CCN(CC(=O)Nc1ccccc1C(F)(F)F)C(=O)c1ccc2[nH]c3c(c2c1)CC(C)CC3 (centres undefined)
    u	x	x	3%	u	u	x	6%
> COc1ccc(Cn2c(CCC(=O)Nc3ccc(CC#N)cc3)nc3cccnc32)cc1
    -21%	1.0%	5%	8%	-6%	u	11%	7%
> COc1ccc(C(=O)NC(=S)Nc2ccc3[nH]c(=O)[nH]c3c2)c(OC)c1
    13%	x	x	-18%	x	x	-11%	-1%
> O=C(c1cccc2nccnc12)N1CCCC(Nc2ccc(F)c(F)c2)C1 (centres undefined)
    -13%	x	x	3%	-6%	2%	1%	-2%
> C=CCSc1nn2c(=O)c3ccccc3nc2s1
    22%	7.5%	-5%	u	u	14%	-4%	7%
> CCOC(=O)c1sc(NC(=O)c2cc3c(s2)CCC(C)C3)nc1C (centres undefined)
    u	-8.4%	-13%	-8%	1%	-16%	0%	-6%
> COc1ccc(-n2c(Cn3c(=O)sc4ccccc43)nnc2SCC(=O)N2CCCCC2)cc1
    -7%	3.5%	12%	-8%	x	0%	-1%	-1%
> Cc1ccc(NC(=O)Nc2nnc(SCC(=O)N3CCC(C)CC3)s2)cc1
    -6%	-4.1%	-13%	x	20%[46.1 µM]	x	x	x
> O=C1CC(NNc2nc3ccccc3s2)C(=O)N1c1ccccc1 (centres undefined)
    -3%	4.3%	0%	-17%	-15%	-2%	-1%	-8%
> CC(=O)NC(=S)NNC(=O)COc1ccc([N+](=O)[O-])cc1
    -7%	x	x	21%	-1%	3%[46.1 µM]	x	2%
> Cc1ccc(S(=O)(=O)N(C)c2ccc(OC(=O)COc3ccccc3)cc2)cc1
    -19%	x	x	4%	12%	u	x	-4%
> COc1cccc(C(=O)NC2=NC(c3ccc(N(C)C)cc3)CC(=O)N2)c1 (centres undefined)
    35%[activator]	-0.3%	0%	x	u	-1%[46.1 µM]	x	x
> COc1ccc(NC(=S)Nc2ccc(S(N)(=O)=O)cc2)c(C)c1
    -3%	x	x	1%	7%[46.1 µM]	0%[46.1 µM]	x	0%
> Cc1cccc(CSCc2ccc(C(=O)NCC3CCCO3)o2)c1 (centres undefined)
    -8%	x	x	8%	u	-18%[46.1 µM]	x	-4%
> O=C(O)c1ccc(-n2c(-c3ccc(Br)cc3)n[nH]c2=S)cc1
    6%	2.4%	2%	1%	-6%	6%	7%	-6%
> c1cn(-c2ncnc3sc4c(c23)CCCC4)cn1
    0%	-1.1%	-10%	2%	21%	0%	-13%	-3%
> O=C(/C=C\Nc1ccc2c(c1)OCO2)c1ccc2c(c1)OCO2
    -38%	x	x	3%	u	u	-5%	0%
> COc1ccc2c(c1)c(C(=O)N/N=C/c1cccs1)c(C)n2C
    -9%	x	x	11%	4%[46.1 µM]	-1%[46.1 µM]	4%	3%
> NC(=O)CC[C@@H]1NC(=O)[C@H](CO)NC(=O)c2cc([N+](=O)[O-])cc(I)c2OCC[C@@H](C(N)=O)NC1=O
    -9%	-1.1%	u	5%	2%	11%	-16%	2%
> CCc1nnc(NS(=O)(=O)c2ccc(NC(=O)c3cccc(Br)c3)cc2)s1
    -6%	x	x	-4%	7%[46.1 µM]	15%[46.1 µM]	24%	1%
> COc1ccc(OC)c(CN2CCSCC2)c1
    -11%	x	x	-13%	0%	u	-5%	5%
> C=CCN1C(=O)C(CC(=O)Nc2ccc(C)cc2)SC1=Nc1c(C)n(C)n(-c2ccccc2)c1=O (centres undefined)
    x	4.4%	u	3%	-2%	-16%	-2%	6%[6.58 µM]
> COc1ccc(-c2csc(N3CCN(c4cc(C)nc5ccccc45)CC3)n2)cc1OC
    0%	x	x	0%	u	u	8%	-3%
> COC(=O)c1sccc1NC(=O)c1cnc2cc(C)nn2c1C
    -8%	x	x	-5%	7%	8%[46.1 µM]	x	-1%
> Cc1ccc(C)c(S(=O)(=O)c2nnn3c2nc(NCc2cccs2)c2sccc23)c1
    -11%	-7.3%	u	x	u	x	x	x
> CCOc1cccc(C=Nc2cc(C)cc(C)c2O)c1O
    2%	-4.8%	5%	3%	x	-2%	-70%	-12%
> Cc1cc(C)n(CCOC(=O)C2C(C=C(Cl)Cl)C2(C)C)n1 (centres undefined)
    u	-0.1%	u	8%	u	-8%	-79%	1%
> CC(=O)NCCc1c[nH]c2ccc(O)cc12
    0%&14%&3%	-4.3%&-1.5%	8%&-6%	-12%	u	13%&13%&13%&13%&21%&13%&13%&13%	-4%	x
> CCOCCCn1c(=NC(=O)c2cccnc2)c(C(=O)OCC)cc2c(=O)n3ccccc3nc21
    9%&-10%	-9.9%	-9%	-4%&-14%	0%[46.1 µM]	12%&-13%	3%	-2%
> Cc1onc(-c2ccccc2Cl)c1C(=O)Nc1nnc(-c2ccc(Br)cc2)s1
    -16%	-2.5%	u	6%	x	x	u	-1%
> COc1ccc(Cn2c(O)c(/C=N/NC(=O)c3cccnc3)c3ccccc3c2=O)cc1
    0%	x	x	-23%	-18%	u	x	u
> COc1ccc2cc(/C(C)=N/NC(=O)C3CC3)ccc2c1
    67%[activator]	x	x	2%	u	20%[46.1 µM]	x	-1%
> CN(C)S(=O)(=O)c1ccc(C(=O)Nc2cccc(C(=O)O)c2)cc1
    -7%	0.0%	-7%	10%	5%	-7%	-2%	x
> O=C(CSc1nc2c(c(=O)[nH]1)CCC2)Nc1ccccc1Cl
    -11%	x	x	63%	1%	-6%[46.1 µM]	13%	-1%
> CC(C)Cc1csc(NC(=O)c2ccc(Br)cc2)c1C(=O)O
    -6%	x	x	6%	x	-1%	-1%	-5%
> COc1cc(Br)cc(-c2nc3c(c(=O)[nH]c(=O)n3Cc3ccccc3)n2C)c1O
    -22%	-4.6%	10%	0%	7%	4%&-2%	-15%	2%
> O=C(Cn1ncc(Cl)c(Cl)c1=O)NC1CCS(=O)(=O)C1 (centres undefined)
    -14%	x	x	14%	x	x	6%	2%
> COC(=O)c1ccccc1NC(=O)Cn1c(=O)n(CCC(=O)NC2CCN(Cc3ccccc3)CC2)c(=O)c2ccccc21
    -10%	x	x	-1%	x	x	-1%	0%
> CC(C)(C)C(=O)Nc1ccc(C(=O)Nc2cccc(Oc3ccc(C(=O)O)c(C(=O)O)c3)c2)cc1
    -2%	x	x	-1%	x	x	11µM*	-3%
> O=C(COc1cccnc1[N+](=O)[O-])Nc1ccc(F)cc1
    25%	x	x	-15%	0%[46.1 µM]	u	x	1%
> COc1ccc(OC(C)c2ccc(C#N)c(=O)[nH]2)cc1 (centres undefined)
    -4%	x	x	-7%	-18%[46.1 µM]	-2%[46.1 µM]	-1%	0%

Screening data (PubChem)
